Screening results: PubChem, National Center for Advancing Translational Sciences (NCATS)
NS1 function inh: influenza NS1 inhibition; S. cerevisiae slowed by influenza A NS1, growth recovery by OD600; Potency, µM (series often up to 46.1 µM), for inactives: at the highest dose activity, positive = more growth; 0.4% of 270,000 active; AID 2326; active means well fitted rising curve with a large enough effect; inconclusive means small, poorly fitted or top-dose-only effect; inactive means no such curve, though single readings can be large or run the other way; note: nearly all actives have a fitted effect of over 50% in size
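A cell-based growth assay was used: compounds that relieve NS1-induced slow growth of budding yeast raise OD600. Assay medium was yeast nitrogen base with ammonium sulphate and -URA supplement, pH 6.0, with 2% galactose.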
RE007 growth inh: less growth of the S. pombe RE007 Vpr strain | S. pombe RE007 Vpr strain, BacTiter-Glo ATP luminescence, 24 h; control for the full effect not named in the record | Potency, µM (series often up to 92.2 µM), for the others: at the highest dose activity change, negative = less growth | 0.21% of 360,000 active; active = well fitted falling curve with a large enough effect; inconclusive = small, poorly fitted or top-dose-only effect; inactive = no such curve, though single readings can be large or run the other way;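 note: % is set by controls: 0 for no effect and ±100 for the full control effect; nearly all actives have a fitted effect of over 50% in size; the assay follows cell death caused by Vpr and the record does not say whether a fall means rescue or toxicity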
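Fission yeast strain RE007, carrying one chromosomally integrated HIV-1 vpr copy, was seeded at OD 0.01 in PMG+AL medium with 23 nL pinned compound. After 24 h at 30 °C and 99% humidity, viability was read by BacTiter-Glo luminescence.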
Marburg entry inh: Marburg virus entry inhibition; Marburg virus pseudotyped entry inhibition, cell reporter; control for the full effect not named in the record; about a third of the inactives were read at about 46 µM; Potency, µM (series often up to 37.8 µM), without a hit: at the highest dose activity change, negative = inhibition, hits mostly inhibitors; 1.8% of 300,000 active; AID 540276; active = well fitted inhibition curve with a large enough effect; inconclusive = small, poorly fitted or top-dose-only effect, or effect the other way; inactive = flat fitted curve, though single readings scatter; tested in HEK293 cells; about a fifth of its hits are not listed in these tables; note: % is set by controls: 0 for no effect and ±100 for the full control effect; luciferase read-out
Cruzain noTriton: blocks cruzain activity in detergent-free assay; P25779; purified cruzain, Z-FR-AMC fluorescence, no detergent; Potency, µM, without a hit: max response, negative = inhibition, most hits filed as inhibitors; 2.3% of 200,000 active; AID 1476;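 note: plate controls were enzyme without inhibitor for no effect and buffer without enzyme for full effect; nearly all actives have a fitted effect of over 40% in size; top concentration of the series not given in the record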
Target sequence (P25779 123-467 limits assumed): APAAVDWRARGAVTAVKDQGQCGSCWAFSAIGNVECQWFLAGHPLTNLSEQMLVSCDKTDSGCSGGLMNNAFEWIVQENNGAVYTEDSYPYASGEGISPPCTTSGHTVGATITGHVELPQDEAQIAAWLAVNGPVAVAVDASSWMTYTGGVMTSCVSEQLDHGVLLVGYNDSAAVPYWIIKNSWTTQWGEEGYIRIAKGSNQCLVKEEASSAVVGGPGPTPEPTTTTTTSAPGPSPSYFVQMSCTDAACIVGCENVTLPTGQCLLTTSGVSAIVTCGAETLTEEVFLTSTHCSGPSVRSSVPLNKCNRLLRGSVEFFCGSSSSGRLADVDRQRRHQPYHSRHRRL
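Purified cruzain at 1.5 nM, pre-incubated 15 min with compound at room temperature in 100 mM sodium acetate pH 5.5, 5 mM DTT, 0.00005% Triton X-100. Reaction started with 2 uM Z-FR-AMC; AMC fluorescence increase over 60 s gives rate.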
Cruzain inh Det: inhibitors of Trypanosoma cruzi cruzain with detergent | Potency, µM, inactives show max response, negative = inhibition, usual class: inhibitors | 0.43% of 200,000 active | P25779 | AID 1478 | purified cruzain, Z-FR-AMC fluorescence, 0.01% Triton;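 note: plate controls were neutral wells for no effect and buffer without enzyme for full effect; nearly all actives have a fitted effect of over 40% in size; top concentration of the series not given in the record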
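Enzyme 1.5 nM, Z-FR-AMC 2 uM, NaOAc 100 mM pH 5.5, DTT 5 mM, Triton X-100 0.01%; 15 min RT compound preincubation; kinetic ex360/em450, 60 s delta.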
StopGo reporter: FMDV 2A StopGo reporter, luciferase signal | Potency, µM (doses to about 57.9 µM), for inactives: at the highest dose signal change, negative = less light | human cells with a luciferase reporter of 2A StopGo recoding; control for the full effect not named in the record | 1.2% of 410,000 active; active = well fitted falling curve with a large enough effect; inconclusive = small, poorly fitted or top-dose-only effect; inactive = no such curve, though single readings can be large or run the other way; tested in HEK293T cells; note: % is set by controls: 0 for no effect and ±100 for the full control effect; nearly all actives have a fitted effect of over 45% in size; luciferase light after 4 h
SARS PLP yeast: SARS-CoV PLP inhibition in yeast. 0.19% of 330,000 active. AID 485353. Potency, µM (highest dose often 32.9 µM), for the others: at the highest dose activity, positive = growth rescue. S. cerevisiae expressing SARS-CoV PLpro, growth rescue; control for the full effect not named in the record; active means well fitted rising curve with a large enough effect; inconclusive means small, poorly fitted or top-dose-only effect; inactive means no such curve, though single readings can be large or run the other way; note: 0% is about no effect; nearly all actives have a fitted effect of over 55% in size; growth read by luminescence after 48 h
LASV entry inh: blocks Lassa virus binding to or entry into cells. Potency, µM (top dose mostly 37.9 µM), for the others: top-dose activity change, negative = inhibition, usual class: inhibitors. Lassa virus pseudotype entry inhibition, cell reporter; control for the full effect not named in the record. AID 540256. 1.2% of 300,000 active; active means well fitted inhibition curve with a large enough effect; inconclusive means small, poorly fitted or top-dose-only effect, or effect the other way; inactive means flat fitted curve, though single readings scatter; tested in HEK293 cells; note: % is set by controls: 0 for no effect and ±100 for the full control effect; nearly all actives have a fitted effect of over 50% in size; luciferase read-out
Numbers without * were called inactive; ? = inconclusive; nt = not tested or not shown; & = joins results of further samples; [ ] = dose if it differs, or a comment. Unless noted, calls come from the whole dose curve; as a rule, active = well fitted curve in the direction sought with a large enough effect; inconclusive = small, poorly fitted or top-dose-only effect, or another doubt; inactive = no such curve, though single readings can be large; an effect the other way counts as inactive or inconclusive. Potency is the fitted concentration of half-maximal effect.

SMILES	NS1 function inh	RE007 growth inh	Marburg entry inh	Cruzain noTriton	Cruzain inh Det	StopGo reporter	SARS PLP yeast	LASV entry inh
Cn1cnnc1Sc1cc(N2CCN(S(=O)(=O)c3ccc(Cl)c(Cl)c3)CC2)ccc1[N+](=O)[O-]	25%	-4%	?	?	-6.8%	-15%	6%	-24%
CCOC(=O)c1cnc2[nH]c3ccccc3n2c1=O	-1%	-7%	nt	nt	nt	65%[activator]	1%	nt
CC(C)OC(=O)c1nnc(-c2ccccc2)nc1OC(C)C	-24%	-7%	-30%	2%	0.1%	-13%	-10%	2%
CC1(C)Cc2c(sc3[nH]c(=O)n(CC(=O)NCC4CCCO4)c(=O)c23)CO1 (stereo not given)	27%	18%	nt	nt	nt	5%	11%	nt
CN1CCN(c2ccccc2NC(=O)Cc2cn(C)c3ccccc23)CC1	2%	-2%	2%	10%	-0.7%	0%	1%	nt
O=C(NCCCn1ccnc1)c1noc2c1CCCC2	1%	-5%	0%	7%	-2.0%	0%	0%	-1%
CCCCn1c(CCl)nc2cc(S(=O)(=O)N3CCOCC3)ccc21	nt	22%	-22%	nt	nt	32µM*	1%	0%
CCCCN1C(=O)Cc2c1nc(N)c1c(N)nc(N(CCC)CCC)c(C#N)c21	9%	-9%	15%	?	-16%	13%	0%	-1%
COc1cc(CN2C(=O)NC(=O)C3(Cc4cc(C)ccc4N(C)C3)C2=O)cc(OC)c1 (stereo not given)	-6%	11%	19%	5%	-1.3%	-18%	4%	-27%
CCN(CC)S(=O)(=O)c1cc(NC(=O)CNc2c(C)n(C)n(-c3ccccc3)c2=O)ccc1C	nt	5%	-1%[46.1 µM]	nt	nt	-2%	2%	?
COCCN1CCn2c(nc3cc([N+](=O)[O-])ccc32)C1	-59%	-8%	nt	nt	nt	-5%	2%	nt
Cc1ccc(/C=N/NC(=O)c2cccnc2)o1	nt	5%	?	nt	nt	1%	-2%	11%[46.1 µM]
O=C(COC(=O)Cc1cn2ccsc2n1)NCc1ccc2c(c1)OCO2	-6%	8%	3%[46.1 µM]	-21%	2.3%	-2%	-1%	6%
CCC(=O)N1c2ccc(S(=O)(=O)NCc3ccc(F)cc3)cc2CC1C (stereo not given)	nt	nt	-16%[46.1 µM]	2%	-4.5%	20%	nt	-25%[46.1 µM]
O=C(NCCCN1CCOCC1)C(C(=O)c1ccccc1)n1ccccc1=O (stereo not given)	1%	-7%	-9%	1%	1.6%	17%	-8%	-3%
Cc1ccc(N2CC(NC(=O)c3ccc(S(=O)(=O)N4CCOCC4)cc3)CC2=O)cc1C (stereo not given)	nt	nt	nt	?	-4.5%	-26%	nt	-25%[46.1 µM]
CC(=O)Oc1ccc(N2C(=O)[C@@H]3[C@H](C2=O)[C@H]2c4ccccc4C=NN2[C@@H]3C(C)=O)cc1	-1%	5%	?	nt	nt	-13%	-1%	0%
Cc1ccc(Sc2nnc(Cc3ccccc3)c3ccccc23)cc1	-8%	-7%	?	4%	1.4%	?	-16%	0%
C=CCn1c(O)c(N=NC(=O)CNC(=O)c2ccco2)c2ccccc21	10%	8%	-30%	-3%	-7.0%	-12%	8%	-1%
Cc1ccc(NC(=O)C(=O)NCc2ccc(/C=N/NC(=O)c3c(C)nc4cc(C)ccn34)o2)cc1	-1%	nt	-3%	?	-12%	nt	-1%	nt

Record cards, from the list above.
Listed for CCOC(=O)c1cnc2[nH]c3ccccc3n2c1=O → NS1 function inh: -1%; RE007 growth inh: -7%; Marburg entry inh: nt; Cruzain noTriton: nt; Cruzain inh Det: nt; StopGo reporter: 65%[activator]; SARS PLP yeast: 1%; LASV entry inh: nt
Listed for CC(C)OC(=O)c1nnc(-c2ccccc2)nc1OC(C)C → NS1 function inh: -24%; RE007 growth inh: -7%; Marburg entry inh: -30%; Cruzain noTriton: 2%; Cruzain inh Det: 0.1%; StopGo reporter: -13%; SARS PLP yeast: -10%; LASV entry inh: 2%

Other entries follow.
SMILES	NS1 function inh	RE007 growth inh	Marburg entry inh	Cruzain noTriton	Cruzain inh Det	StopGo reporter	SARS PLP yeast	LASV entry inh
COc1cc(C2OC(c3cc(OC)c(OC)c(OC)c3)C(C)C2C)cc(OC)c1OC (stereo not given)	-6%	29%	nt	nt	nt	-19%	0%	nt
Cc1ccc(C(=O)c2cc(C)sc2N)cc1	-9%	-9%	10%[46.1 µM]	nt	nt	10%	0%	-1%
Cn1cccc1C(=O)NC(=O)CSc1nc2ccccc2s1	-6%	-2%	?	-6%	-1.5%	-8%	-8%	-1%
CCC(C)(C)n1nnnc1C(c1ccc(O)c(OC)c1)N1CCN(c2nc3ccccc3s2)CC1 (stereo not given)	-30%	-3%	-8%&-8%	27%	-4.9%	0%	-3%	16%
Cc1ccc(CNC(=O)Nc2cccs2)cc1	-3%	15%	33%	-15%	-5.5%	65%[activator]	4%	-9%
Cc1ccc(S(=O)(=O)NCC2NCCc3ccccc32)cc1 (stereo not given)	nt	-6%	?	nt	nt	54%[activator]	-1%	10%
CSc1ccc(C2CC(=O)Nc3nc(SC)[nH]c(=O)c32)cc1 (stereo not given)	nt	-5%	19%[46.1 µM]	nt	nt	-14%	11%	-16%
Cc1nn2c(=O)cc(CN(C)c3ccccc3)nc2s1	nt	nt	nt	19%	-0.5%	-22%	nt	-4%[46.1 µM]
C=CCN1C(=NC(=O)CCC(=O)O)SC2CS(=O)(=O)CC21 (stereo not given)	3%	0%	-4%	3%	0.0%	0%	?	-5%
O=C(C[n+]1cc(Br)cc2ccccc21)c1ccccc1	?	-14%	nt	nt	nt	-10%	3%	nt
O=C(COC(=O)c1n[nH]c(=O)c2ccccc12)c1ccccc1	-7%	5%	3%	-6%	3.9%	-16%	3%	12%
CCc1ccc(N2CC(C(=O)Nc3ccc(S(=O)(=O)Nc4nccs4)cc3)CC2=O)cc1 (stereo not given)	2%	9%	15%[46.1 µM]	nt	nt	2%	-2%	22%[46.1 µM]
Cc1cc(C(=O)COC(=O)c2ccc[nH]c2=O)c(C)n1C1CC1	6%	7%	-17%	4%	-3.0%	29%	-17%	2%
Nc1c(NCc2ccccc2)c(=O)c1=O	1%	7%	-2%[46.1 µM]	nt	nt	4%	5%	3%
O=C1CCN(Cc2nc(-c3ccc(Cl)cc3)no2)CCN1	1%	-4%	8%[46.1 µM]	nt	nt	-5%	0%	22%[46.1 µM]
O=C(Nc1ccc(S(=O)(=O)Nc2ncccn2)cc1)C12CC3CC(CC(Cl)(C3)C1)C2	nt	-10%	0%[46.1 µM]	nt	nt	-9%	-1%	-20%[46.1 µM]
CCc1ccc(NC(=O)C2(C)Cc3ccccc3C(=O)O2)cc1 (stereo not given)	-5%	4%	?	nt	nt	43%[activator]	0%	6%
Cc1ccc(-c2cc(C(=O)Nc3nccs3)c3ccccc3n2)o1	-25%	?	?	-17%	-9.8%	-22%	-54%	?
CCCC(=O)N/C(N)=N/c1nc(C)c2ccccc2n1	-5%	-2%	?	nt	nt	-3%	-3%	?
CCOc1ccc(-n2ccn3c(CC(C)CC(=O)O)nnc3c2=O)cc1 (stereo not given)	nt	nt	?	9%	-3.4%	-12%	nt	14%[46.1 µM]
CCn1ccnc1CN(C)C(=O)CC1C(=O)NCCN1Cc1c(F)cccc1Cl (stereo not given)	-4%	-5%	8%[46.1 µM]	nt	nt	1%	0%	2%[46.1 µM]
Cc1ccc(OCc2nc(-c3ccccn3)no2)c(Br)c1	-34%	-14%	?	4%	-3.4%	-51%	-15%	?
CCN(CCn1cccn1)C(=O)CCc1nnc(CCc2ccccc2OC)o1	-3%	6%	-10%[46.1 µM]	nt	nt	-2%	1%	-12%[46.1 µM]
O=c1c2cc([N+](=O)[O-])ccc2nc2n1CCC2	6%	12%	-18%	nt	nt	5%	0%	8%
CNC(=O)CN(c1ccc(C23CC4CC(CC(C4)C2)C3)cc1)S(C)(=O)=O	-2%	-4%	?	nt	nt	-20%	0%	-6%
CC(=O)Nc1ccc(-c2cc(C(=O)O)c3c(-c4ccccc4)[nH]nc3n2)cc1	nt	nt	4%[46.1 µM]	-18%	-13%	2%	nt	-9%[46.1 µM]
COc1ccc(C=NNC(=O)c2ccccc2NS(=O)(=O)c2cccs2)cc1O	nt	4%	?	nt	nt	43%[activator]	14%	2%
COc1cccc(CCNCc2c(F)cccc2F)c1	nt	-21%	17%[46.1 µM]	nt	nt	44%[activator]	1%	10%
COc1ccccc1NC1=C(Cl)C(=O)OC1OC(=O)c1ccco1 (stereo not given)	nt	-12%	-25%[46.1 µM]	nt	nt	-10%	2%	-1%
O=C(Cn1c(=O)c(C(F)(F)F)nc2ccccc21)Nc1cccc(Br)c1	nt	nt	nt	6%	1.5%	-1%	nt	2%[46.1 µM]
CN(Cc1ccccc1)C(=O)CCCn1c(=O)c2cccn2c2cccnc21	12%	7%	nt	nt	nt	-5%	-1%	nt
Cc1cccc(-c2nc(SCc3ccc(Br)cc3)n3[nH]c(=O)cc3n2)c1	nt	nt	nt	-3%	2.8%	-20%	nt	-8%[46.1 µM]
CCCCCCCNC1=CC(=O)CC(c2ccco2)C1 (stereo not given)	-21%	13%	-11%	17%	-6.2%	25%	-37%	5%
Cc1c(-c2nc(N)nc(Nc3ccc(F)cc3)n2)oc2ccccc12	-87%	-6%	?	5%	-5.5%	3%	-13%	-6%
COc1ccc(NC(=O)CSc2nnc(CC(=O)Nc3ccc(F)cc3)n2C)cc1	1%	-26%	29%[46.1 µM]	nt	nt	9%	2%	nt
Cc1ccc(NC(=O)CSc2cccc[n+]2[O-])c([N+](=O)[O-])c1	nt	0%	-1%	nt	nt	17%	3%	-20%
COc1ccc(CNS(=O)(=O)c2c(C)[nH]c(C)c2C(=O)N2CCCCC2)cc1	-10%	3%	-16%[46.1 µM]	nt	nt	14%	1%	-7%[46.1 µM]
